# Screening results from PubChem BioAssay.
# FPRL1 ligand – ligands of human FPRL1, also counter-screen for FPR ligands | P25090 | FPRL1-expressing cells, fluorescent ligand binding inhibition, flow cytometry | inhibition, %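 (tested at 6.7 µM)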 | 0.3% of 24,000 active;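 also: 0% = buffer alone and 100% = receptor blocker peptide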
# Target sequence (P25090 whole entry, looked up): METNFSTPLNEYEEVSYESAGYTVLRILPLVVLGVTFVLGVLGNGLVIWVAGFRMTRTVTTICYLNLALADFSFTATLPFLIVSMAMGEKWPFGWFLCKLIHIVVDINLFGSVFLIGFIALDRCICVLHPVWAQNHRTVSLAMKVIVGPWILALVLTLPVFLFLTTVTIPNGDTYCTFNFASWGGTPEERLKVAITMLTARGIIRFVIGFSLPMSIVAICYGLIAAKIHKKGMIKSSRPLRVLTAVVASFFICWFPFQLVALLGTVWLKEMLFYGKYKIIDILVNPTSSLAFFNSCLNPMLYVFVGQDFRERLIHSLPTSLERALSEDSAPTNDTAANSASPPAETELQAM
# VCAM-1 down imaging – inhibitors of TNFa-induced VCAM-1 surface display, imaging, high-content imaging, pooled HUVEC, TNFa stimulus (AID 456); HUVEC TNFa-induced VCAM-1 surface expression, immunofluorescence imaging; numbers were filed only for top-ranked candidate wells; inhibition, % at 5 µM, or IC50 in µM where a hit was titrated; 0.2% of 10,000 active;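 active = top tenth filtered wells with inhibition above zero that passed visual or statistical confirmation; inactive = the rest, including hits rejected on review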;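 also: 0% = stimulated vehicle wells and 100% = unstimulated cells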
# FPR ligand – human FPR ligand, with FPRL1 counter-screen | P21462 | FPR-expressing cells, fluorescent ligand binding, flow cytometry | inhibition, %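 (tested at 6.7 µM)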 | 0.74% of 24,000 active | AID 440;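 also: 0% = buffer wells and 100% = receptor blocker peptide wells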
# Target sequence (P21462 whole entry, looked up): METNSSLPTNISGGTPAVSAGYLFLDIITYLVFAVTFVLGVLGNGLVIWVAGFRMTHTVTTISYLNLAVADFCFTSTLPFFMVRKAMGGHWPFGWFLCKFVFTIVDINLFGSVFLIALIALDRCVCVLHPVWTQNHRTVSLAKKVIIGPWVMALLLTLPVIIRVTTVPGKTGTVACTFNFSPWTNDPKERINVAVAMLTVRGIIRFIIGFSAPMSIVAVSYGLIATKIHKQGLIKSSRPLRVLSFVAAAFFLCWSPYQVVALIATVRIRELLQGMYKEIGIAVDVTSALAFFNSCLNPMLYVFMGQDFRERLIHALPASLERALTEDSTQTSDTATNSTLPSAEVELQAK
# VCAM-1 up imaging – boosters of cytokine-driven VCAM-1 levels – imaging, high-content imaging, pooled HUVEC, TNFa stimulus (AID 457) | Pooled HUVEC, TNFa-induced VCAM-1 immunofluorescence imaging; hits of this screen are not shown here | calls only | 0.2% of 10,000 active;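 active = a top-ranked rise in VCAM-1 staining upheld on image or statistical review; inactive = the rest, including candidates rejected on review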;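 also: compounds tested at 5 µM in the well; cells exposed to compound for 24 hours before fixing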
# VCAM-1 inhibition – suppression of endothelial VCAM-1 upregulation – cell-based, plate reader, pooled HUVEC, TNFa stimulus (AID 454) | HUVEC TNFa-induced VCAM-1 surface immunofluorescence, plate reader; numbers were filed only for top-ranked candidate wells | inhibition, % at 5 µM | 0.2% of 10,000 active;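 active = compound among top-ranked inhibitors of TNF-induced VCAM-1 adhesion protein staining, with the hit upheld by image or statistical review; inactive = the rest, including hits rejected on review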;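 also: 0% = TNFa with vehicle and 100% = cells without TNFa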
# Active calls of the source: *; i = inactive; / = not tested or not shown.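 The calls were made as follows, unless noted: active = mean above 30%; inconclusive = self-fluorescent; inactive = the rest.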 These rows are one share of the data, so the mix of outcomes need not match the whole.
# Order of results – VCAM-1 inhibition, FPRL1 ligand, VCAM-1 down imaging, FPR ligand, VCAM-1 up imaging
- CCCOC(=O)c1[nH]c2c(c1C)C(=O)CC(c1cc(OC)c(OC)c(OC)c1)C2 (configuration not stated)
  i, 1, i, 2, i
- Cc1cccc(-n2nc3c(c2NC(=O)c2ccco2)CSC3)c1C
  /, -2, /, 96*, /
- CCn1cc(C(=O)Nc2ccc3c(c2)OCCO3)c2cc(OC)c(OC)cc2c1=O
  /, 2, /, 3, /
- COc1ccc(C(=O)c2coc3ccc(O)c(CN(C)C)c23)cc1
  /, -2, /, -9, /
- COc1ccccc1-c1cc(C(F)(F)F)nc(N2CCOCC2)n1
  /, -11, /, -10, /
- CCOc1ccc(-c2c(C#N)c(N)nc3c2c(=O)n(C)c(=O)n3C)cc1OC
  i, -2, i, -2, i
- O=C1CCc2cc(S(=O)(=O)N3CCC(C(=O)NC4CCCCCCC4)CC3)ccc2N1
  /, 1, /, 2, /
- COc1ccccc1NC(=O)NCCCN1CCN(c2cccc(Cl)c2)CC1
  i, 6, i, -6, i
- CCOC(=O)CCC(=O)Nc1ccc(S(=O)(=O)N2CCCC2)cc1
  i, 10, i, 9, i
- Cn1c2ccccc2c2ncn(CCCN3CCOCC3)c(=O)c21
  i, 4, i, -3, i
- O=C(CCCCn1c(=O)[nH]c2ccccc2c1=O)N1CCN(c2cccc(C(F)(F)F)c2)CC1
  /, -3, /, 4, /
- Cc1cc(C)c(C#N)c(SCc2ccc(C#N)cc2)n1
  i, -7, i, -1, i
- CC(C)c1ccc(NC(=O)C(c2ccc3c(c2)OCO3)N2CCN(C(=O)c3ccco3)CC2)cc1 (configuration not stated)
  /, 4, /, 6, /
- O=C(NCCCN1CCCC1)Nc1cccc2ccccc12
  /, 7, /, -3, /
- COc1ccc(OC)c(C(=O)c2nc3c(n2O)CCCCC3)c1
  i, 52*, i, 54*, i
- CCCOc1ccccc1C1CC(=O)NC2=C1C(=O)CCC2 (configuration not stated)
  /, 8, /, -5, /
- Cc1cc(S(=O)(=O)N2CC(=O)N(CCc3ccccc3)C(=O)C2)ccc1F
  /, -8, /, -11, /
- COc1ccc(OC)c(S(=O)(=O)Nc2ccccc2SC)c1
  i, -1, i, 6, i
- COc1cccc(/C(O)=C2/C(=O)C(=O)N(CCN(C)C)C2c2ccc(Br)cc2)c1 (configuration not stated)
  /, 10, /, 3, /
- O=S(=O)(NCC(O)COCc1ccco1)c1cccs1 (configuration not stated)
  i, 5, i, 2, i

# Next section, starting with the last 7 of the part before.
# Order of results – VCAM-1 inhibition, FPRL1 ligand, VCAM-1 down imaging, FPR ligand, VCAM-1 up imaging
- O=C(NCCCN1CCCC1)Nc1cccc2ccccc12
  /, 7, /, -3, /
- COc1ccc(OC)c(C(=O)c2nc3c(n2O)CCCCC3)c1
  i, 52*, i, 54*, i
- CCCOc1ccccc1C1CC(=O)NC2=C1C(=O)CCC2 (configuration not stated)
  /, 8, /, -5, /
- Cc1cc(S(=O)(=O)N2CC(=O)N(CCc3ccccc3)C(=O)C2)ccc1F
  /, -8, /, -11, /
- COc1ccc(OC)c(S(=O)(=O)Nc2ccccc2SC)c1
  i, -1, i, 6, i
- COc1cccc(/C(O)=C2/C(=O)C(=O)N(CCN(C)C)C2c2ccc(Br)cc2)c1 (configuration not stated)
  /, 10, /, 3, /
- O=S(=O)(NCC(O)COCc1ccco1)c1cccs1 (configuration not stated)
  i, 5, i, 2, i
- CCCS(=O)(=O)N1CCN(C(=O)CCC2CCCC2)CC1
  i, -2, i, 13, i
- C1CCN(c2nc3nonc3nc2N2CCCC2)C1
  /, 18, /, 7, /
- CC1CCCCC1NC(=O)CCS(=O)(=O)c1cccc2nonc12 (configuration not stated)
  /, -1, /, 0, /
- COc1ccc(-c2nnc3ccc(SCC(=O)N4CCN(c5ccccc5)CC4)nn23)cc1OC
  /, 1, /, 11, /
- CCC1(C(=O)O)NC(c2cccc(OC)c2O)C2C(=O)N(c3ccccc3)C(=O)C21 (configuration not stated)
  /, 2, /, -2, /
- Cc1cc(C)n(CCc2nc(-c3cccs3)cs2)n1
  i, -3, i, 0, i
- COc1ccc(C(=O)Nc2ccccc2C(=O)NCCN2CCOCC2)cc1
  i, -5, i, -2, i
- CC(NC(=O)C1C(=O)N(CCO)C2(C)CC1c1ccccc1O2)c1ccccc1 (configuration not stated)
  /, -1, /, 8, /
- O=C(Cn1ccc2ccccc2c1=O)N1CCN(c2cccc(Cl)c2)CC1
  /, -2, /, 2, /
- CC(O)c1cc2c(cc1NC(=O)c1cnn3c1NC(c1ccco1)CC3C(F)(F)F)OCO2 (configuration not stated)
  i, 2, i, 7, i
- Cn1c(C(=O)N2CCN(C3CCCCC3)CC2)cc2c(=O)n(C)c3ccccc3c21
  /, -3, /, -2, /
- CC(C)CCSc1nnc(Cn2c(=O)sc3ccccc32)n1C
  /, -2, /, -2, /
- CCOC(=O)N1CCC2(O)CCCCC2C1c1ccc(F)cc1 (configuration not stated)
  i, 14, i, 8, i
- O=S(=O)(Nc1nc2ccccc2nc1NCc1ccco1)c1ccc(Cl)cc1
  i, -2, i, 5, i
- O=C1CC(c2ccccc2)CC(O)=C1C=NCCN1CCOCC1 (configuration not stated)
  i, 1, i, 10, i
- CNc1nnc(-c2cc3ccccc3oc2=O)s1
  /, -7, /, -11, /
- Cc1cc(N2CCN(c3cccc(C(F)(F)F)c3)CC2)n2nc(C)nc2n1
  /, 3, /, 3, /
- COCCOC(=O)c1c(C)nc(SCC(=O)Nc2ccc(OC)cc2)c(C#N)c1-c1ccco1
  i, 6, i, -3, i
- N=c1c(C(=O)NC2CCCCC2)cc2c(=O)n3ccccc3nc2n1CCN1CCOCC1
  /, 0, /, 11, /
- CCOC(=O)N1CCN(C(=O)CS(=O)Cc2nc(-c3cccc(C)c3)oc2C)CC1 (configuration not stated)
  /, 0, /, 2, /
- O=C(CCN1CCN(c2ccc(F)cc2)CC1)Nc1ccccc1F
  i, 4, i, 4, i
- CCc1ccc(NS(=O)(=O)c2ccc3[nH]cc(C(=O)NCC4CCCO4)c(=O)c3c2)cc1 (configuration not stated)
  /, -1, /, 9, /
- CCOCCCNC(=O)c1c(C)c(C(=O)OCC)n(C)c1C
  /, 11, /, -4, /
- O=S(=O)(NCC(c1cccnc1)N1CCOCC1)c1cccs1 (configuration not stated)
  /, -1, /, 8, /
- CCCCCc1nc2c(=O)n(C)c3ccccc3c2o1
  /, 0, /, 4, /
- O=C(Nc1ccc(F)c(Cl)c1)c1ccc2c(=O)n3c(nc2c1)CCCCC3
  /, -2, /, 9, /
- CCOC(=O)C1CCN(C(=O)CN(c2ccc(OC)cc2)S(=O)(=O)c2c(C)noc2C)CC1
  /, -3, /, 2, /
- CCOC(=O)Cn1c2c(c(-c3ccccc3OC)cc1=O)CCCC2
  /, -3, /, 10, /
- CCC(C)N(C)Cc1cccc(C2(O)CCN(S(=O)(=O)c3ccc(F)cc3)CC2)c1 (configuration not stated)
  /, 1, /, -12, /
- CCCCn1c(NC(=O)CC)c(C#N)c2nc3ccccc3nc21
  i, -1, i, 48*, i
- CCn1ncc(C2=NOC(C(=O)Nc3cc(OC)c(Cl)cc3OC)C2)c1C (configuration not stated)
  /, -3, /, 0, /
- CCOc1ccc(OCC)c(NC(=O)CC2Oc3ccccc3NC2=O)c1 (configuration not stated)
  /, -2, /, 2, /
- O=C(NCCC1=CCCCC1)C1CCN(C(=O)Nc2ccccc2)CC1
  i, 4, i, -7, i
- COCC(=O)N(Cc1cc2cc(OC)ccc2[nH]c1=O)c1ccccc1
  i, 6, i, -6, i
- COc1ccc(OC)c(C2=NOC(C(=O)NCCN3CCOCC3)C2)c1 (configuration not stated)
  i, 0, i, 2, i
- O=C(CCN1C(=O)C2C3C=CC(C3)C2C1=O)NCCc1ccccc1Cl (configuration not stated)
  i, 3, i, -2, i
- CCS(=O)(=O)N1CCCC(C(=O)NC2CCCC2)C1 (configuration not stated)
  /, 7, /, 14, /
- O=C(NCc1cccs1)C(Cc1ccccc1)NS(=O)(=O)c1cccs1 (configuration not stated)
  i, -4, i, 0, i
- CC(=O)c1ccc(OCC(O)CN2CCOCC2)cc1 (configuration not stated)
  /, 0, /, 0, /
- COc1c(Cl)cc(-c2noc(C)c2C(=O)NC(C)C)cc1Cl
  /, 2, /, 2, /
- CCOCCCNC(=O)C(c1ccc(Cl)cc1)N1CCN(C(=O)c2ccco2)CC1 (configuration not stated)
  /, -5, /, 5, /
- COc1cccc(OC)c1OCCCSc1nc(C)cc(=O)[nH]1
  i, 3, i, 1, i
- CCCN1CCN(C(=O)C2CCN(S(=O)(=O)c3ccc4c(c3)oc(=O)n4C)CC2)CC1
  /, -5, /, -2, /
- Cc1ccc(CNC(=O)c2coc(=O)c3ccccc23)o1
  i, 2, i, -7, i
- CCN(CC)C(=O)C1CCN(S(=O)(=O)c2ccc(C3CNC(=O)C3)cc2)CC1 (configuration not stated)
  /, -3, /, -4, /
- CC(=O)c1c(C)[nH]c(C(=O)NCc2ccccn2)c1C
  /, -5, /, 2, /
- O=C1CN(C(=O)CN2CCCC2)C(c2ccccc2)c2cc(Br)ccc2N1 (configuration not stated)
  i, -8, i, -6, i
- Cc1ccc2c(c1)N(CCC(=O)NCCN1CCOCC1)C(=O)CO2
  /, 7, /, 1, /
- CCCCN(C)C(=O)CCC(=O)Nc1ccc2nc(N3CCOCC3)cc(C)c2c1
  /, -1, /, -1, /
- CCC(C)NC(=O)CS(=O)Cc1nc(-c2ccccc2C)oc1C (configuration not stated)
  /, 0, /, -2, /
- COc1cccc(C2=CC(c3ccc(OC)c(OC)c3OC)n3nnnc3N2)c1 (configuration not stated)
  /, 6, /, 7, /
- Cc1cccc2cc(C#N)c(NCCNC(=O)NC3CCCCC3)nc12
  i, -1, i, -1, i
- CCc1ccc(NC(=O)C2C3C=CC(C4CC34)C2C(=O)O)cc1 (configuration not stated)
  /, -8, /, -33, /
- O=C(CSc1nnc(-c2cccs2)o1)NCC1CN(Cc2ccccc2)CCO1 (configuration not stated)
  i, 5, i, -1, i
- CCCS(=O)(=O)N1CCC(C(=O)N2CCOCC2)CC1
  /, 4, /, -2, /
- O=c1cc(NCC2CCCO2)[nH]c(=O)n1-c1ccc(Cl)cc1 (configuration not stated)
  /, 6, /, 2, /
- CCOC(=O)Cn1c(=O)oc2cc(S(=O)(=O)NCc3cccs3)ccc21
  /, -1, /, -17, /
- CC(C)(C)c1n[nH]c(=S)n(N)c1=O
  /, 11, /, -6, /
- COc1ccc(NC(=O)CSc2nccn2-c2ccccc2)cc1
  /, -7, /, -4, /
- CCCCOC(=O)NCN1C(=O)C2C3C=CC(C3)C2C1=O (configuration not stated)
  /, -1, /, 2, /

# Additional structures follow:
# Order of results – VCAM-1 inhibition, FPRL1 ligand, VCAM-1 down imaging, FPR ligand, VCAM-1 up imaging
- O=C(C1CC1)N(Cc1ccco1)c1nc(-c2ccccc2)cs1
  i, 3, i, 0, i
- Cc1cccc(C)c1NC(=O)C1(NC(=O)c2cnccn2)CCCCC1
  /, 4, /, -2, /
- O=C(Cc1cccs1)N(c1ccccc1)C1C=CS(=O)(=O)C1 (configuration not stated)
  i, 4, i, 5, i
- CCOc1ccc(N(CCC#N)S(=O)(=O)c2ccc(OC)cc2)cc1
  /, -10, /, -6, /
- CC(C(=O)Nc1ccccc1-c1ccccc1)N1CCOCC1 (configuration not stated)
  i, -2, i, -1, i
- COc1ccc(CCNC(=O)C2(C)CCC(=O)N2CCC(C)C)cc1OC (configuration not stated)
  /, 5, /, -5, /
- CCOC(=O)N1CCN(C(=O)CCc2ccc(S(=O)(=O)NCCc3ccccc3)cc2)CC1
  i, -10, i, -7, i
- O=c1c2ccccc2[nH]c(=S)n1C1CCCCC1
  /, -7, /, -4, /
- Brc1ccc2[nH]ncc2c1
  i, -2, i, 3, i
- CCc1ccc(CN(C)CCc2ccccn2)cc1
  i, -2, i, -4, i
- CCn1c(=NC(=O)c2ccc(S(=O)(=O)N3CCOCC3)cc2)sc2cccc(OC)c21
  /, -2, /, 5, /
- Cc1ccc(S(=O)(=O)N2CCN(C(=O)CSC3CCCC3)CC2)c(C)c1
  i, -1, i, 8, i
- COCCN1C(=O)C(O)=C(C(=O)c2cccs2)C1c1ccccc1 (configuration not stated)
  /, -5, /, 60*, /
- Cn1c(-c2ccccc2)cc(=O)c2ccccc21
  i, 0, i, 6, i
- CCOc1ccc2nc(N3CCC(C(=O)N4CCN(c5ncccn5)CC4)CC3)sc2c1
  /, -5, /, 1, /
- CC(C)NC(=O)c1ccc2c(c1)nnn2C
  i, -8, i, -7, i
- CC1(C)Cc2c(C#N)c(NC3CCCCC3)nc(-c3ccco3)c2CO1
  /, -5, /, -9, /
- O=C1CSc2ccccc2N1Cc1ccccc1F
  /, 11, /, 2, /
